Vif TR-FRET: inhibitors of Vif binding to APOBEC3G peptide, primary screen, biochemical, TR-FRET, GST-Vif 1-94, biotin-A3G peptide, dose response retest (AID 1117319) | TR-FRET GST-Vif / biotin-A3G peptide binding; higher % means a stronger effect; test concentration not given here; strong numbers were not always called active | inhibition, %; hits with a dose series show IC50 in µM | hit rate 0.57% among 260,000;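 active = above the screen mean plus three standard deviations and confirmed in dose response; inconclusive = results disagree or hit not tested in dose response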;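 note: Vif residues 1-94 fused to GST binding biotinylated APOBEC3G peptide 110-148; 0% = full assay without inhibitor and 100% = GST in place of GST-Vif; retest series ran down from 100 µM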
E coli growth: E. coli growth inhibition | Escherichia coli growth, OD600, 23 h; hits give low values | OD600 absorbance (test concentration not listed) | hit rate 0.21% among 330,000;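 active = OD600 absorbance below the run mean of sample wells minus 3.6 SD, in any replicate, cut at about 0.56 in these data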;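 note: stock transfer was 300 nL into about 60 µL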
HNF4A DNA FP: change in binding of human HNF4 alpha to DNA. HNF4a-FITC DNA binding, fluorescence polarization, 1 h. activity change, % at 10 µM. hit rate 0.3% among 360,000; in the data active = activity change above about 30%, passing the limit was not always enough;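 note: controls were the assay level and a saturating level of protein; the project sought stronger binding though the title names inhibitors; some compounds called inactive have numbers as strong as hits; positive values seem to mean higher polarization but the record does not say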
Target sequence (P41235 whole entry, looked up): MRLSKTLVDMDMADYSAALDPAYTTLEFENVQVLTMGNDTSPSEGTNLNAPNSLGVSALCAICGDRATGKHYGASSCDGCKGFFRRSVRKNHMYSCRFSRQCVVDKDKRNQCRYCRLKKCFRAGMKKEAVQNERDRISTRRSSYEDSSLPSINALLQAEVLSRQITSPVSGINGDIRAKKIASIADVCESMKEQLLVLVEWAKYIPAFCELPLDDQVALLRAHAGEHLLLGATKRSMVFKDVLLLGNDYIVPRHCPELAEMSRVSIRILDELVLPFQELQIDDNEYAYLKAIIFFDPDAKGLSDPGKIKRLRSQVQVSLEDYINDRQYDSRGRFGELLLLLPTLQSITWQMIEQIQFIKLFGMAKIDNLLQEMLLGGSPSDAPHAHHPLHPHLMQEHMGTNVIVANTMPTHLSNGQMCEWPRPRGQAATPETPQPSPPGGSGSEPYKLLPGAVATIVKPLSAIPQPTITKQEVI
ALR inh: inhibitors of human sulfhydryl oxidase ALR; hit rate 3.8% among 290,000; inhibition, % (concentration not given with the values); purified ALR, DTT oxidation, H2O2 HRP-luminol luminescence; P55789;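 active = mean and each replicate at 75% or more; inconclusive = only one of the two met; inactive = neither met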;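 note: stock transfer was 7.5 nL into about 7.5 µL; 0% = neutral wells and 100% = wells with inactivated enzyme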
FGF22 binding: FGF22 (human) thermal shift binding | Q9HCT0 | recombinant FGF22 thermal shift, SYPRO orange fluorescence; percent of sucrose octasulfate shift, DMSO zero | calls only at 9.99 µM | hit rate 1.5% among 340,000;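 active = melting point raised past a set limit in the mean and every replicate; inconclusive = no clear call; three in four hits are not shown here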
AF4-AF9 inh: MLL-AF4/AF9 protein interaction inhibition | AID 651704 | AlphaScreen, biotin-AF4 peptide binding to FLAG-AF9 | hit rate 0.47% among 350,000 | inhibition, % at 10 µM;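 active = every replicate reaching a set inhibition limit, whatever the replicate mean, cut at about 25% in these data; inconclusive = mean inhibition reaches that limit but some replicates miss it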;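 note: 0% = plate neutral control median and 100% = total signal loss; the record names both 10 and 1 µM as test concentration; the first replicate is given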
Target sequence (P42568 whole entry, looked up): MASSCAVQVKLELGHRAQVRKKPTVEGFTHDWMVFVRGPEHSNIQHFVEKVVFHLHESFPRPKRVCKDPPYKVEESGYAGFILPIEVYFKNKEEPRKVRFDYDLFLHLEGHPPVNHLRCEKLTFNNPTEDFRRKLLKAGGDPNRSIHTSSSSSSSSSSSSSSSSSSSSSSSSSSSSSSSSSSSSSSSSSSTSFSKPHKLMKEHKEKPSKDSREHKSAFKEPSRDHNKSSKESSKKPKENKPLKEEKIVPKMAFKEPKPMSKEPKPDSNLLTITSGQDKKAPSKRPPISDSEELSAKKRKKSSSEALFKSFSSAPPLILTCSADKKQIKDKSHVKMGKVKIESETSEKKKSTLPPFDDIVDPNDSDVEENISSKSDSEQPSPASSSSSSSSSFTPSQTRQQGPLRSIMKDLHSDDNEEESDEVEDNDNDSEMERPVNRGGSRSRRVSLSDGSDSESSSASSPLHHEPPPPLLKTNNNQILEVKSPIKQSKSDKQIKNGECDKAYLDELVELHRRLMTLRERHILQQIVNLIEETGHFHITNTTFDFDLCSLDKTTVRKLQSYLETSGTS
rRNA inh HTS: inhibitors of bacterial rRNA selective over humanized ribosomes; E. coli WT GFP vs humanized-ribosome RFP mutants, fluorescence, 24 h; hits give low values; DMSO median 0, no signal -100; GFP signal change (wild-type ribosome), % (no concentration beside the values); hit rate 1.6% among 350,000; AID 720706;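 active = significant combined selectivity score with lowered wild-type GFP, culture density cut under 30%, mutant RFP and density less affected; inactive = any of these conditions unmet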; note: one replicate is shown; some compounds called inactive have numbers as strong as hits
rRNA inh HTS OD600: recorded beside rRNA inh HTS, whose call it bears; OD600 change, %; measured here: OD600 growth;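 optical density of the mix in the first replicate; 0 = DMSO median and -100 = no signal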
rRNA inh HTS RFP: further read-out of rRNA inh HTS, marked with its call; RFP signal change, %; measured here: RFP humanized mutant strains;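 first replicate; 0 = DMSO median and -100 = no signal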
Numbers without * were called inactive; i = inactive; ? = inconclusive; . = no result given; + = active, no number; & = joins results of further samples. Some of the compounds tested (hit frequency here may not be typical).

SMILES	Vif TR-FRET	E coli growth	HNF4A DNA FP	ALR inh	FGF22 binding	AF4-AF9 inh	rRNA inh HTS	rRNA inh HTS OD600	rRNA inh HTS RFP
CC(C)(C)[S@@](=O)N1Cc2cc(C(=O)NCc3ccccc3F)nc(-c3cccc(-c4cccnc4)c3)c2[C@H]1CCO	.	.	.	.	i	-0.2	-5	-9	26
COc1ccc(CCn2c(C)cc3c(c2=O)C(c2ccc4c(c2)OCO4)C(C#N)=C(N)O3)cc1OC (centres undefined)	-6%&-3%	0.74	-1.1	-4	.	.	.	.	.
Cc1cc(NC(=O)C(C)SCC(=O)Nc2nc3c(F)cc(F)cc3s2)no1 (centres undefined)	0%	0.68	12	.	i	-7.9	2	4	-1.7
CO[C@@H](CN(C)Cc1ccc(-c2ccccn2)cc1)[C@H](C)CN(C(=O)Nc1ccc(F)cc1)[C@H](C)CO	.	.	.	.	+	2.9	-1	-3	-0.2
COc1ccc(C(=O)Nc2ccccc2C(=O)N/N=C/c2ccccc2OC)cc1	14%	.	1.0	-7	.	.	.	.	.
Cn1c(=O)c2c(nc(Oc3cccc(O)c3)n2C)n(C)c1=O	.	0.64	-0.4	.	i	0.6	6	7	-3.2
COc1ccc(-c2noc(CSc3nc4sc(C)c(C)c4c(=O)n3-c3ccccc3)n2)cc1	-4%	0.7	-0.8	-17	i	-0.6	4	12	-1.8
O=C(C1CC1)N1N=C(C2CCCCC2)CC1(O)C(F)(F)F (centres undefined)	-4%	0.65	4.0	-15	.	-0.6	12	5	-1.7
OC(COc1ccc(Br)cc1)CN1CCN(c2ccccc2)CC1 (centres undefined)	.	0.56	-3.9	6	i	-6.0	-1	0	1.4
O=C(O)CCC(=O)Nc1ccccc1Oc1ccccc1	-3%	0.69	0.2	-16	.	-0.1	12	14	-0.7
COc1cc(CNc2nc(C)c([N+](=O)[O-])c(C)c2C#N)cc(OC)c1	5%	0.74	124	.	.	.	.	.	.
COC(=O)c1ccccc1C(=O)N1CCOCCOCCOCC1	-14%	0.65	-1.6	-1	i	-1.5	22	9	1.2
Cc1ccc2c(c1)N(CC(=O)NCCCN1CCOCC1)C(=O)c1cccnc1O2	1%	0.74	0.1	-9	i	1.4	9	22	4.1
Cc1ccc(NC(=O)/C(=C\c2ccc3c(c2)OCO3)NC(=O)c2ccco2)cc1	-2%	0.7	-1.5	-9	.	.	.	.	.
Cc1ccc(C(=O)CCC(=O)Nc2ncccc2O)cc1	10%	0.61	2.8	17	i	-19	-2	-5	-0.4
O=C1c2ccccc2C(=O)N1CCCc1c[nH]c2ccc(Cl)cc12	.	0.72	-0.2	-2	.	.	.	.	.
Cc1ccc(OCc2nnc(SC(C)C(=O)O)n2Cc2ccccc2)cc1 (centres undefined)	.	0.64	1.9	-5	.	-3.3	-8	-17	-3.0
Cc1ccc(S(=O)(=O)N(C)C[C@H]2OCCCC[C@H](C)Oc3ccc(NS(=O)(=O)c4c(C)noc4C)cc3C(=O)N([C@H](C)CO)C[C@H]2C)cc1	.	.	.	.	i	0.7	-2	9	-0.4
CC(=O)Nc1sc(C)c(C)c1C(=O)OCC(=O)Nc1ccc(S(N)(=O)=O)cc1	-9%	0.75	4.5	-3	i	-2.2	17	13	5.1
O=C(CO/N=C/c1ccccc1O)NNC(=O)c1ccccc1Cl	3%	.	0.0	8	.	.	.	.	.
O=C(COC(=O)CCc1ccc(S(=O)(=O)N2CCOCC2)cc1)NC(=O)NC1CCCCC1	-1%	0.65	1.1	2	i	-0.1	-11	-23	0.5
O=C(Nc1cccc(-c2cscn2)c1)C1CCN(Cc2ccc(CO)o2)CC1	8%	0.71	-0.6	24	i	-1.6	-1	6	-1.0
Cc1nnc(SCc2cccc([N+](=O)[O-])c2)[nH]c1=O	-7%	0.69	1.3	99*	i	-1.5	11	6	1.2
O=C(O)c1ccc(NC(=O)c2ccc3c(c2)C(=O)N(c2ccccc2)C3=O)cc1	-4%	0.66	-3.3	2	i	-1.0	6	4	-1.6
O=C(C[n+]1ccc(Cc2ccccc2)cc1)Nc1ccc([N+](=O)[O-])cc1Cl	-1%	.	-0.8	-5	i	0.5	-31*	-5.0*	2.5*
Cc1ccc2c(c1)[nH]c1c(=O)n(Cc3ccccn3)cnc12	-4%	0.76	3.1	-9	.	.	.	.	.
CCOCC(=O)Nc1c(C(=O)N2CCN(c3ncccn3)CC2)oc2ccccc12	.	0.66	1.2	-1	i	4.1	-2	-7	-0.6
Cc1cc(C)cc(CSCC(=O)N/N=C/c2ccc(OCC(=O)NCc3ccco3)cc2)c1	-5%	.	-2.8	-5	i	5.3	3	-1	-3.7
O=c1c(-c2n[nH]c(=S)o2)cccn1Cc1ccccc1	14%	0.68	-0.4	66	i	-0.8	1	1	-4.4
Cc1cc(-c2ccc(C(C)C)c(S(=O)(=O)NCCN3CCC(C)CC3)c2)on1	.	0.66	2.2	-3	i	3.4	3	-5	2.4
CCCNC(=O)N1CC2(CN(C(=O)c3cnccn3)C2)c2c([nH]c3cc(OC)ccc23)[C@H]1CO	.	.	.	.	i	-1.9	1	5	-1.6
Cc1ccc(S(=O)(=O)Nc2ccc3c(c2)C(=O)N(C)[C@H]2CC[C@@H](CC(=O)O)O[C@H]2CO3)cc1	.	.	.	.	i	1.1	3	12	1.6
O=C(CN1C(=O)C2C3C=CC(C3)C2C1=O)NCCc1ccccc1Cl (centres undefined)	10%	0.71	0.7	-2	.	.	.	.	.
O=C(Cn1nnc(-c2cccs2)n1)NCc1ccccc1	2%	0.7	3.4	.	i	1.4	9	1	0.1
OC(c1ccccc1)c1ncc(-c2ccc(Oc3ccccc3)cc2)[nH]1 (centres undefined)	.	.	3.3	.	i	5.8	-62	-77	-17
Cn1cnc(S(=O)(=O)N[C@H]2C=C[C@@H](CC(=O)Nc3ccccc3)O[C@H]2CO)c1	.	.	.	.	i	-1.1	1	-3	0.6
C[C@@H]1CCCCO[C@H](CN(C)Cc2ccncc2)[C@H](C)CN([C@@H](C)CO)C(=O)c2cc(NC(=O)CCC(F)(F)F)ccc2O1	.	.	.	.	i	7.6	0	-4	0.2
O=C1CN(C(=O)CNC(=O)c2ccccc2Cl)c2ccccc2N1	-6%	0.66	-4.0	-3	i	-0.8	8	10	0.1
C[C@@H]1CN([C@H](C)CO)C(=O)c2cc(NC(=O)CCC(F)(F)F)ccc2O[C@@H]1CN(C)Cc1ccc(-c2ccccc2)cc1	.	.	.	.	i	4.8	-5	-13	13
Cc1ccc(S(=O)(=O)c2nc(NN(C)C)sc2Cl)cc1	.	0.68	-1.1	97*	i	1.9	-2	-3	1.1

Part of the list above, showing only rRNA inh HTS, rRNA inh HTS RFP and HNF4A DNA FP:
Molecule,rRNA inh HTS,rRNA inh HTS RFP,HNF4A DNA FP
Cc1nnc(SCc2cccc([N+](=O)[O-])c2)[nH]c1=O,11,1.2,1.3
O=C(O)c1ccc(NC(=O)c2ccc3c(c2)C(=O)N(c2ccccc2)C3=O)cc1,6,-1.6,-3.3
O=C(C[n+]1ccc(Cc2ccccc2)cc1)Nc1ccc([N+](=O)[O-])cc1Cl,-31*,2.5*,-0.8
Cc1ccc2c(c1)[nH]c1c(=O)n(Cc3ccccn3)cnc12,.,.,3.1

(cont.)
SMILES	Vif TR-FRET	E coli growth	HNF4A DNA FP	ALR inh	FGF22 binding	AF4-AF9 inh	rRNA inh HTS	rRNA inh HTS OD600	rRNA inh HTS RFP
C[C@@H]1CN([C@@H](C)CO)C(=O)c2cc(-c3cccc(C#N)c3)cnc2O[C@@H]1CN(C)Cc1ccc(F)cc1	.	.	.	.	i	-0.3	0	4	1.5
N#C/C(=C/c1ccc(-c2ccc([N+](=O)[O-])cc2)o1)c1nnc(N2CCOCC2)n1-c1ccccc1	-4%	0.72	48*	.	i	-4.2	-4	-4	12
NS(=O)(=O)c1ccc(CCNC(=O)COC(=O)Cc2ccc([N+](=O)[O-])cc2)cc1	-3%	0.71	1.5	2	i	-1.3	1	5	-0.8
Cc1cccc(NS(=O)(=O)c2ccc(-n3cccn3)cc2)c1C	-5%	0.63	-1.2	-7	i	-5.4	-6	-8	1.0
Cc1c(C2C(C#N)=C(N)N(c3ccccc3C#N)C3=C2C(=O)CCC3)cnn1C (centres undefined)	.	0.68	-0.2	7	.	.	.	.	.
CC(C)C[C@@H](CSc1ccc(Br)cc1)N1CCN(C)CCC1=O	.	.	4.8	-26	i	3.3	-4	-4	0.2
Cc1ccc(OCc2cc(C(=O)NC(C)Cc3cccc(C)n3)no2)cn1 (centres undefined)	.	0.69	-3.8	1	i	-1.3	-1	-9	-2.8
Cc1cc(N=Nc2ccc(C)c(N=Nc3cc(C)c(N)cc3N)c2)c(N)cc1N	15%	.	2.0	38	i	63*	-6	5	-0.1
O=C(N/N=C/c1c[nH]c2ccccc12)c1cccc(Cl)c1	-4%	.	4.1	21	+	6.1	-2	-1	0.5
COc1cccc(CN(C)C(=O)c2cc(-c3ccc(F)cc3)nc3ccccc23)c1	.	0.71	-1.4	-2	.	.	.	.	.
CC(C)CCNC(=O)CCc1nnc2n(CCCOC(C)C)c(=O)c3ccccc3n12	-2%	0.66	-1.2	3	i	-0.4	30	21	1.5
O=C(COC(=O)C1CCCO1)Nc1cccc(C(F)(F)F)c1 (centres undefined)	17%	0.7	-1.2	-3	.	.	.	.	.
CC(C)c1ccc(NC(=S)N2CCN(C)CC2)cc1	.	0.71	-0.9	-20	i	-4.1	0	-11	-1.7
CC1CN(c2ccc(Cl)nn2)CC(C)O1 (centres undefined)	.	0.65	2.3	5	i	1.3	16	10	3.1
CCN(CC)C(=O)Cn1cc(S(=O)(=O)CC(=O)Nc2cccc(NC(C)=O)c2)c2ccccc21	1%	.	4.5	.	i	-2.5	9	14	-1.7
CN(C)Cc1ccccc1Sc1ccc2c(c1)CCCC2	.	0.58	0.2	-6	i	?	-42	-41	-10
CCOC(=O)C(=Nc1ccccc1)NO	5%	0.66	1.3	12	.	.	.	.	.
CCOC(Cn1ccc(=O)[nH]c1=O)OCC	.	0.67	2.8	1	i	-9.3	10	6	-2.2
CCn1nc(C)c(CN2CCC(n3nccc3NC(=O)c3ccc4c(c3)OCO4)CC2)c1C	0%	0.73	1.1	-1	i	2.2	20	13	2.2
O=C(N/N=C\c1cc([N+](=O)[O-])ccc1N1CCOCC1)c1ccccn1	-3%	.	-0.5	.	i	1.1	12	8	-2.0

In a second layout: entries from further up.
The line under a structure holds: Vif TR-FRET, E coli growth, HNF4A DNA FP, ALR inh, FGF22 binding, AF4-AF9 inh, rRNA inh HTS, rRNA inh HTS OD600, rRNA inh HTS RFP
> CCOC(Cn1ccc(=O)[nH]c1=O)OCC
    ., 0.67, 2.8, 1, i, -9.3, 10, 6, -2.2
> CCn1nc(C)c(CN2CCC(n3nccc3NC(=O)c3ccc4c(c3)OCO4)CC2)c1C
    0%, 0.73, 1.1, -1, i, 2.2, 20, 13, 2.2

(further entries)
SMILES	Vif TR-FRET	E coli growth	HNF4A DNA FP	ALR inh	FGF22 binding	AF4-AF9 inh	rRNA inh HTS	rRNA inh HTS OD600	rRNA inh HTS RFP
N#CC1=C(N)Oc2nc[nH]c(=O)c2C1c1cccs1 (centres undefined)	4%	0.69	-1.4	-10	.	-1.5	11	23	1.9
Cc1cc(=O)oc2cc(OCC(=O)N3CCCc4ccccc43)ccc12	-4%	0.69	0.3	2	.	.	.	.	.
O=C(CSc1nncn1-c1cccnc1)N(c1ccccc1)c1ccccc1	6%	0.69	-2.9	-3	i	0.5	13	12	0.9
c1ccc(CCn2c3ccccc3c3nnc(SCc4ccc5nonc5c4)nc32)cc1	12%	0.79	-1.7	-2	.	.	.	.	.

Screening results from PubChem BioAssay.
